From PubChem
MT1-MMP act inh: blockers of MT1-MMP proenzyme processing, primary screen, HT1080 RFP-PRO-GFP cells, GFP/RFP fluorescence; GFP/RFP ratio change, % at 20 µM; GFP/RFP ratio fluorescence, overnight; percent of plate control window, DMSO zero; AID 651647, 2012; actives 0.061% (n = 360,000); Matrix metalloproteinase-14 (Homo sapiens), P50281;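 active = GFP/RFP ratio change of at least 30% with cell ATP level not reduced by more than half and red fluorescence within 50% of control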; also: strong numbers were not always called active
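Assay system: HT1080 RFP-PRO-GFP cells. Benchmarks: DMSO vehicle wells and RFP-L50D-GFP reporter cell wells. Times: overnight cell settling, then overnight compound exposure, 37 °C, 5% CO2. Compound: 20 µM single dose, 1% DMSO. Read-out basis: GFP/RFP fluorescence ratio.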
CSC inhib: cancer stem cell viability inhibitors, primary screen, luminescence. actives 1.1% (n = 300,000). cancer stem cell-like cells viability. AID 2717, 2010. inhibition, % at 7.5 µM;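 active = mean at 75% or more and at least half the replicates too; inconclusive = mean and replicates disagree; tested in HMLE shEcad cells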;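 also: 0% = median of negative and 100% = median of positive control wells; the first replicate is given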
PABP FP inh: PABP poly(A) RNA binding inhibitors, primary screen, biochemical, fluorescence polarization, uHTS; Polyadenylate-binding protein 1 (Homo sapiens), P11940; inhibition, % at 35 µM; actives 1% (n = 290,000); AID 2014, 2009;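 active = 50% or more with normal probe brightness, or confirmed in later tests; inconclusive = above 50% with abnormal brightness, or retests that disagree; inactive = below 50% or failed in later tests; about a fifth of its hits are not listed in these tables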;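 also: calls also rest on retests at 20 µM and on dose response follow-up; controls were probe without protein and protein plus probe with vehicle; some compounds called inactive have numbers as strong as hits; many hits fall short of the cut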
Target sequence (P11940 whole entry, looked up): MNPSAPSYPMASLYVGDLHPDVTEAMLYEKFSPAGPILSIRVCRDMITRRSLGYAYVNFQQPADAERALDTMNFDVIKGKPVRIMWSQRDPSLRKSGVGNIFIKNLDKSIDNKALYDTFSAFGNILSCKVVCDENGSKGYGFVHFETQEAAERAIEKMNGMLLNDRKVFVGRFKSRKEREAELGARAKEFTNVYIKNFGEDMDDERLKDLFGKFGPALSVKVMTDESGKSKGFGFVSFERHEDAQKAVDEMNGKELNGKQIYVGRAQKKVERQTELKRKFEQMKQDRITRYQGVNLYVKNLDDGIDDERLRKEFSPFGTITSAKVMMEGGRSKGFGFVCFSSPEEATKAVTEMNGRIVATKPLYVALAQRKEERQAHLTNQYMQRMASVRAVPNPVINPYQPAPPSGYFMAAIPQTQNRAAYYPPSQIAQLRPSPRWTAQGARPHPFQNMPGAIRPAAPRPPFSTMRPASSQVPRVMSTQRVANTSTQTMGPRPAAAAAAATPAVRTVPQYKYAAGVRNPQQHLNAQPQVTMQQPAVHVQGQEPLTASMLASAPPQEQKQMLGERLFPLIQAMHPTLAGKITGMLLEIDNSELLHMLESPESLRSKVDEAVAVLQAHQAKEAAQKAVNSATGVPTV
HIV Env fusion: inhibitors of HIV-1 Env-driven cell-cell fusion, primary screen, HeLa-JRFL effector, CEM21 target cells, luciferase; inhibition, % at 12.3 µM; actives 1.1% (n = 360,000);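 active = mean replicate inhibition score of at least 50 and every replicate individually at or above 50; inconclusive = only one of the two criteria met; inactive = mean below 50 and not all replicates reaching 50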;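 also: 0% = plate neutral controls and 100% = maraviroc near 300 nM; one replicate is shown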
Rce1 inhib: yeast Rce1p protease inhibitors, primary screen, biochemical, fluorescence, cell-free homogeneous. yeast membranes, quenched prenylated peptide cleavage fluorescence. calls only. actives 0.27% (n = 290,000). AID 2563, 2010;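 active = fall in fluorescence gain of 50% or more versus controls, with final raw signal at or below 3038400; inconclusive = same 50% fall but final raw signal above 3038400; inactive = fall in fluorescence gain under 50%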;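 also: plate controls were neutral control wells for no effect and wells lacking membranes for full effect; tested at 10 µM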
Yeast UUG start: modulators of yeast start codon fidelity, primary screen, whole organism, S. cerevisiae, single point, plate reader; S. cerevisiae UUG-firefly luciferase reporter, luminescence/redox ratio; activity score, % at 18.7 µM; actives 0.13% (n = 350,000); AID 602363, 2012;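 active = replicate mean at a twofold rise or more, about +100% in these data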;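 also: firefly luciferase made from a UUG start codon reports start codon fidelity; reporter light over untreated wells divided by growth signal over untreated wells; some hits fall short of that in this replicate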
eIF4H inh: human eIF4H binding inhibitors, primary screen, translation initiation inhibitor project, biochemical, uHTS, fluorescence polarization. Eukaryotic translation initiation factor 4H (Homo sapiens), Q15056. eIF4H fluorescence polarization binding assay. inhibition, % at 35 µM. actives 0.94% (n = 290,000);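 active = 50% or more with normal probe brightness, or confirmed in later tests; inconclusive = above 50% with abnormal brightness, or retests that disagree; inactive = below 50% or failed in later tests; about a fifth of its hits are not listed in these tables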;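 also: calls also rest on retests at 20 µM and on dose response follow-up; 0% = protein and probe with vehicle and 100% = probe without protein; strong numbers were not always called active; many hits fall short of the cut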
eIF4H inh retest: also measured in eIF4H inh; calls as there; inhibition, %; compound at 20 µM; confirmation average;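 mean of two retest wells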
PABP FP inh retest: also measured in PABP FP inh; calls as there; inhibition, %; compound at 20 µM; confirmation repeats;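 mean of two retest wells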
MT1-MMP act inh RFP: second read-out of MT1-MMP act inh, no call of its own (marks repeat the call); RFP signal change, %; measured here: RFP expression control read;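 0 = vehicle wells; hits needed this value within 50% of zero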
* = called active by the depositor; i = inactive; ? = inconclusive; / = no result given; & = joins results of further samples. Not a hit list. About 2.9% of those tested had a hit in this group.

SMILES | MT1-MMP act inh | MT1-MMP act inh RFP | CSC inhib | PABP FP inh | HIV Env fusion | Rce1 inhib | Yeast UUG start | eIF4H inh | others
COc1ccc(S(=O)(=O)N2CCOCC2)cc1NC(=O)CNC(=O)c1cccs1 | 0 | 2 | / | / | 5 | / | -16 | /
O=c1cc(O)c2sc3nc(C(F)(F)F)c4c(c3c2[nH]1)CCCCC4 | -1 | -1 | 3 | 13 | 8 | i | -8 | 1
Cn1ncc(Cl)c1C(=O)NCc1ccc2c(c1)OCO2 | -5 | -19 | -6 | 7 | -1 | i | -13 | 0
CCOc1ccccc1NC1c2ccccc2C(=O)N1c1ccc(C)cn1 (stereo unspecified) | 8 | -8 | 1 | 6 | 14 | i | -25 | -2
Cc1ccc(NC(=O)C(=O)NC(C)C2COc3ccccc3O2)cc1 (stereo unspecified) | -3 | -4 | 10 | -7 | / | i | 1 | 0
CCOc1ccc(Nc2nc(-c3cccnc3)cs2)cc1 | -2 | 1 | -20 | 12 | -51 | i | -18 | 8
CCOc1ccccc1N1CCN(CC(=O)N(CC(C)C)c2c(N)n(CC(C)C)c(=O)[nH]c2=O)CC1 | -6 | 3 | -6 | 51* | -7 | i | / | 9.0* | eIF4H inh retest=91*;PABP FP inh retest=60*
O=C(Nc1ccc(F)cc1)C1CCN(S(=O)(=O)c2cccc3nonc23)CC1 | -1 | 0 | -15 | 8 | -1 | / | -5 | -1
CCN(CC)CCNC(=O)c1cn(CC)c2ccc(S(=O)(=O)N3CCOCC3)cc2c1=O | -3 | 3 | 9 | 0 | -19 | i | -18 | -6
COc1cc(C(=O)N2CCC(NC(=O)C(Cc3ccc(C)cc3)NC(C)=O)CC2)cc(OC)c1OC (stereo unspecified) | -1 | 0 | -4 | 1 | / | i | / | -7
O=C(C=Cc1cccc(Cl)c1)c1ccccc1 | -1 | 0 | / | / | -227 | / | -13 | /
CN(Cc1ccccc1)C(=O)c1cccc(NC(=O)Cc2cccc(NC(=O)C3CCN(C(=O)C4CC4)CC3)c2)c1 | 6 | 2 | / | / | ? | / | 5 | /
CN1OC[C@@H]2CN(Cc3ccc(Cl)cc3)[C@H](c3ccc(N4CCCCC4)cc3)C[C@@H]21 | -2 | -4 | / | / | 33 | / | -10 | /
Fc1ccc(-c2nc3ccc(Br)cn3c2Cc2cccc(Cl)c2)cc1 | -6 | -10 | / | / | -36 | / | -10 | /
Cc1ccccc1-c1nc2ccccc2o1 | 1 | -1 | -10 | -5 | / | i | -10 | 2
CCC(C)c1c(O)nc(SCC(=O)N2CCOCC2)[nH]c1=O (stereo unspecified) | 8 | 7 | / | 2 | -23 | i | 4 | -2
Cc1ccc(S(=O)(=O)N2CCC(C(=O)OC(C)C(=O)N(C)c3ccccc3)CC2)cc1C (stereo unspecified) | 3 | -4 | / | / | -7 | / | -6 | /
CCOc1ccc(CSCCNC(=S)Nc2ccccc2)cc1 | 2 | -9 | 12 | -16 | -95 | i | / | -9
Cc1ccc(NC(=O)c2scc3c2CCCC3)cc1 | -1 | 0 | 12 | -4 | / | i | / | -2
CN(Cc1ccccc1)C(=O)c1cc(=O)[nH]c2ccccc12 | 2 | -1 | -14 | 3 | 20 | i | -21 | -9
COc1cc(NC(=O)CCCSc2nc(-c3ccco3)cc(C(F)(F)F)n2)cc(OC)c1OC | 0 | -6 | -6 | -15 | / | i | -11 | -1
CCCCN(CC)CCNC(=O)c1cc2c(=O)[nH]c3ccccc3c2n1C | 7 | -1 | -11 | -1 | 12 | i | / | -2
CCOc1ccc(N2C(=O)CC(N3CCc4ccccc43)C2=O)cc1 (stereo unspecified) | 6 | 5 | 4 | -1 | -76 | i | -27 | -6
CCN(c1ccccc1)S(=O)(=O)c1ccc2c(c1)C(C)(C)C(=O)N2C | -2 | 2 | 4 | -8 | / | i | 7 | -10
Cc1ccc2c(c1)N(CC(=O)N(Cc1ccc3c(c1)OCO3)CC1CCCO1)C(=O)C(C)O2 (stereo unspecified) | 7 | -3 | 13 | -2 | -61 | i | 85 | 0

(continued)
SMILES | MT1-MMP act inh | MT1-MMP act inh RFP | CSC inhib | PABP FP inh | HIV Env fusion | Rce1 inhib | Yeast UUG start | eIF4H inh | others
COc1cccc(CC(=O)OC(C)C(=O)Nc2ccc(N3CCOCC3)cc2)c1 (stereo unspecified) | 3 | 1 | -13 | / | / | i | -6 | /
CN1CCC(NC(=O)c2cccs2)CC1 | -2 | 5 | -5 | -9 | -8 | i | -17 | 0
CCc1ccc(/C(C)=N/NC(=O)c2ccc(-n3cnnn3)cc2)cc1 | 3 | 3 | / | / | 22 | / | -12 | /
COc1ccc(S(=O)(=O)NCC2CCCO2)cc1C(=O)O (stereo unspecified) | -10 | -4 | -9 | -6 | -5 | i | 3 | -2
COc1ccc(CNC(=O)CSc2nc3nc(C)cc(C)n3n2)cc1 | 4 | 8 | -21 | -5 | 3 | i | 5 | 4
Cc1ccccc1C(=O)N[C@H](C(=O)Nc1ccc(Cl)c(Cl)c1)C(C)C | -4 | -3 | 18 | 31 | / | i | -12 | -2
CCCC(=O)c1cc2cc(Cl)ccc2oc1=O | -3 | -6 | 5 | -9 | -14 | i | 8 | -9
CCn1c(=O)n(CC)c2cc(NC(=O)C(C)c3ccccc3)c(Br)cc21 (stereo unspecified) | -5 | -3 | / | / | 2 | i | -4 | /
CC1CC(C)CN(S(=O)(=O)c2ccc(F)c(C(=O)Nc3ccc(Cl)cc3F)c2)C1 (stereo unspecified) | 4 | 2 | / | 87 | / | i | / | 5 | eIF4H inh retest=1;PABP FP inh retest=-1
Cn1c(=O)c2nc(Cl)c(-c3ccccc3)nc2n(C)c1=O | 4 | 4 | 10 | -3 | / | i | / | 7
CCOc1ccccc1N1CCN(CC(=O)Nc2ncc(C)s2)CC1 | -1 | -5 | -13 | 10 | -7 | i | -22 | 2
Cc1ccc(Nc2ccc(C(N)=O)cc2[N+](=O)[O-])cc1 | 4 | -3 | -7 | -3 | / | i | / | 1
C[C@@H]1CN([C@@H](C)CO)S(=O)(=O)c2ccc(Br)cc2O[C@H]1CN(C)C(=O)C1CCCCC1 | 1 | -2 | / | / | -4 | / | 5&4&2 | /
Nc1nc(SCC(=O)NCc2ccc(F)cc2)[nH]c(=O)c1NC(=O)c1ccc(Cl)cc1 | -1 | 2 | -4 | 3 | 5 | i | / | 9
O=C(CN1C(=O)c2ccccc2S1(=O)=O)NC1CCCCCC1 | 0 | -3 | 8 | -8 | 2 | i | -1 | -2
O=C(Nc1ccc(N2CCOCC2)cc1)c1ccc2nc(-c3ccco3)c(-c3ccco3)nc2c1 | 3 | 1 | / | -2 | -285 | i | -3 | 15
CCSc1nc(N2CCOCC2)c2ccccc2n1 | -4 | -7 | -17 | -4 | 37 | i | -11 | 0
CCc1cccc(OCCn2ccnc2)c1 | -2 | 3 | -3 | 6 | -8 | i | / | 6
COC(=O)c1ccc(NC(=O)CN(C)Cc2cccc(F)c2)cc1 | 1 | 1 | 4 | -10 | -3 | i | / | 9
CCN(CC(=O)NCC(=O)Nc1ccc(Br)cc1C)Cc1ccccc1 | -3 | -2 | -3 | / | 29 | i | -10 | /
Cc1ccc(C(=O)O)cc1NS(=O)(=O)c1ccc2ccccc2c1 | 0 | 2 | 0 | 2 | -12 | i | -13 | 4
C[C@@H]1CN(S(=O)(=O)c2ccc3c(c2)OCCO3)CCN1S(=O)(=O)c1c(F)cccc1F | 4 | 3 | 4 | / | 21 | / | -6 | /
CS(=O)(=O)Nc1ccc(C(=O)CC(=O)Nc2ccc([N+](=O)[O-])cc2)cc1 | 9 | 1 | -12 | -4 | 6 | i | -1 | 4
COC(=O)/C(=N\OCc1ccc(C#N)cc1)c1c(C)nn(C)c1C | 0 | -1 | 13 | 9 | 12 | i | -11 | 5
Cc1ccsc1C(=O)NNC(=O)c1csc(N2CCOCC2)n1 | 1 | 0 | -12 | / | -4 | i | -8 | /
Cc1cc(NC(=O)CCS(=O)(=O)c2nc(-c3ccccc3)cc(C(F)(F)F)n2)no1 | -3 | -2 | 35 | 10 | / | / | -26 | -4
COc1ccc(C2C(C(=O)N3CCOCC3)c3ccccc3C(=O)N2c2ccc(OC)cc2)cc1 (stereo unspecified) | -5 | -1 | -5 | -2 | -101 | i | 3 | -3
CC1Cc2cc(S(=O)(=O)NCCC(=O)N(C)Cc3ccccc3)ccc2N1C(=O)C1CC1 (stereo unspecified) | 0 | 4 | -3 | 2 | 3 | i | 7 | -12
Cc1csc(CNC(=O)C2CCC(=O)N(CCc3cccc(F)c3)C2)n1 (stereo unspecified) | -8 | -1 | -10 | 6 | -10 | i | -3 | 7

Copied from the entries so far (13 entries):
SMILES | MT1-MMP act inh | MT1-MMP act inh RFP | CSC inhib | PABP FP inh | HIV Env fusion | Rce1 inhib | Yeast UUG start | eIF4H inh | others
COc1cccc(CC(=O)OC(C)C(=O)Nc2ccc(N3CCOCC3)cc2)c1 (stereo unspecified) | 3 | 1 | -13 | / | / | i | -6 | /
CN1CCC(NC(=O)c2cccs2)CC1 | -2 | 5 | -5 | -9 | -8 | i | -17 | 0
CCc1ccc(/C(C)=N/NC(=O)c2ccc(-n3cnnn3)cc2)cc1 | 3 | 3 | / | / | 22 | / | -12 | /
COc1ccc(S(=O)(=O)NCC2CCCO2)cc1C(=O)O (stereo unspecified) | -10 | -4 | -9 | -6 | -5 | i | 3 | -2
COc1ccc(CNC(=O)CSc2nc3nc(C)cc(C)n3n2)cc1 | 4 | 8 | -21 | -5 | 3 | i | 5 | 4
Cc1ccccc1C(=O)N[C@H](C(=O)Nc1ccc(Cl)c(Cl)c1)C(C)C | -4 | -3 | 18 | 31 | / | i | -12 | -2
CCCC(=O)c1cc2cc(Cl)ccc2oc1=O | -3 | -6 | 5 | -9 | -14 | i | 8 | -9
CCn1c(=O)n(CC)c2cc(NC(=O)C(C)c3ccccc3)c(Br)cc21 (stereo unspecified) | -5 | -3 | / | / | 2 | i | -4 | /
CC1CC(C)CN(S(=O)(=O)c2ccc(F)c(C(=O)Nc3ccc(Cl)cc3F)c2)C1 (stereo unspecified) | 4 | 2 | / | 87 | / | i | / | 5 | eIF4H inh retest=1;PABP FP inh retest=-1
Cn1c(=O)c2nc(Cl)c(-c3ccccc3)nc2n(C)c1=O | 4 | 4 | 10 | -3 | / | i | / | 7
CCOc1ccccc1N1CCN(CC(=O)Nc2ncc(C)s2)CC1 | -1 | -5 | -13 | 10 | -7 | i | -22 | 2
Cc1ccc(Nc2ccc(C(N)=O)cc2[N+](=O)[O-])cc1 | 4 | -3 | -7 | -3 | / | i | / | 1
C[C@@H]1CN([C@@H](C)CO)S(=O)(=O)c2ccc(Br)cc2O[C@H]1CN(C)C(=O)C1CCCCC1 | 1 | -2 | / | / | -4 | / | 5&4&2 | /
